# VDR inh: vitamin D3 receptor (human) inhibition | P11473 | VDR-SRC2-3 peptide fluorescence polarization, 2 h | Potency, µM, without a hit: max response, negative = inhibition, hits mostly inhibitors | 0.93% of 400,000 active | AID 504847; active = well fitted inhibition curve with a large enough effect; inconclusive = small, poorly fitted or top-dose-only effect, or another doubt; inactive = no such curve, though single readings can be large or run the other way; also: series mostly up to about 120 µM
# Target sequence (P11473 whole entry, looked up): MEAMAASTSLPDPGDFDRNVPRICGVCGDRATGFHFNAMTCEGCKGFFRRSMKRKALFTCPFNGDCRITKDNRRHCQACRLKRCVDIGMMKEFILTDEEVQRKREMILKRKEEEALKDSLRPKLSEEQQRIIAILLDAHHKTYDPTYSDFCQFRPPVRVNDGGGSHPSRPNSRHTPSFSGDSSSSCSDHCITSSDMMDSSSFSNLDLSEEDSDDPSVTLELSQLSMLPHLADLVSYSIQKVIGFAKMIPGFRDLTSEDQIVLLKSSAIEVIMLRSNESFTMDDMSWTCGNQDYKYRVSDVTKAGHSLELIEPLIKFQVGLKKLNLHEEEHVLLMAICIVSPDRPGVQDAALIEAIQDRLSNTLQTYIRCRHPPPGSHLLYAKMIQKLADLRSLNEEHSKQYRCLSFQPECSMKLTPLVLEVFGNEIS
#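 Inhibition of the VDR/SRC2-3 peptide interaction is quantified by fluorescence polarization. Compounds (23 nl, pintool) incubate with the reagents for 2 hours at ambient room temperature.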
# Starred values were filed as active, the others as inactive; ? = inconclusive; & = joins results of further samples; [ ] = another dose, or the depositor's remark. % is scaled to controls: 0 for no effect and ±100 for the full control effect; potency is read from the fitted curve at half-maximal effect. Not all compounds are listed; rates above refer to the full screens.
SMILES,VDR inh
CCNc1nc(NCC)nc(SCCOC(=O)Nc2ccc(Cl)cc2Cl)n1,0%
CCOC(=O)c1sc2ncnc(N3CCN(CC)CC3)c2c1C,18%
Cc1ccccc1S(=O)Cc1ccc(C(=O)N2CCN(c3cccc(C)c3C)CC2)o1 (centres undefined),-4%
CCc1nnc(NC(=O)c2ccc(-c3ccc(F)cc3)o2)s1,-10%
Cc1nn(CC(=O)OC(C)C(=O)Nc2ccccc2[N+](=O)[O-])c(C)c1[N+](=O)[O-] (centres undefined),-14%
O=C(NCCNC(=O)C(F)(F)F)c1ccncc1,-3%
CCc1ccc(/C=C2\C(=N)N3N=C(CC(=O)N4CCCCC4)SC3=NC2=O)cc1,2%
O=C(COc1cccc2ccccc12)NNC(=O)C1CCCO1 (centres undefined),13%
Cc1cc(C)nc(N(C#N)CN2C(=O)c3ccccc3C2=O)n1,18%
COc1ccc(OCC(=O)N/N=C\c2ccco2)cc1,-16%
CC1=C(C(N)=O)N2C(=O)[C@@H](NC(=O)Cc3ccccc3)C2SC1 (some centres undefined),-14%
N#Cc1ccc(C(=O)N2CCC3CC2c2cc(-c4ccccc4)ccc23)cc1 (centres undefined),-13%
CCOc1ccc(NC(=O)C(=O)NCc2ccco2)cc1,3%
COc1ccc(CN2CCNC(=O)C2CC(=O)NC2CCC2)c(OC)c1 (centres undefined),-16%
O=C(C1CCC1)N1CCc2cc(S(=O)(=O)NCc3ccc(F)cc3)ccc21,-9%
CC1=C(C(N)=O)C(c2cccc(OCc3ccccc3)c2)n2nnnc2N1 (centres undefined),27%
O=C(CNC(=O)c1ccc(Cl)cc1)N/N=C/C=C/c1ccccc1,5%
COc1ccccc1C(=O)Nc1ccc(OCC(=O)N2CCCCC2)cc1,25%
Cc1cccc(Nc2nccc(N(C)C)c2C#N)c1,4%
Cc1cccc(-n2ncc3c(N)ncnc32)c1,-22%
COc1ccc(-c2onc3ccc(C(C)=O)cc23)cc1,-17%
COc1ccc(-c2cc(C(=O)OCC(=O)N3CCOCC3)c3ccccc3n2)cc1,6%
CC(=O)Nc1ccc(S(=O)(=O)Nc2ccc(N3CCCCC3)cc2)cc1,6%
CCCc1nc(C(C)(C)O)c(C(=O)OCc2oc(=O)oc2C)n1Cc1ccc(-c2ccccc2-c2nn[nH]n2)cc1,-2%
Cc1ccccc1S(=O)(=O)Cc1ccc(C(=O)NCCc2ccccc2)o1,-9%&2%

# Later entries
SMILES,VDR inh
O=C(c1sc2ccccc2c1Cl)N(Cc1ccccc1Cl)C1CCS(=O)(=O)C1 (centres undefined),12%
COc1ccc(S(=O)(=O)NCC(c2ccco2)N2CCN(c3ccccc3F)CC2)cc1OC (centres undefined),1%
Cc1cccc(NS(=O)(=O)c2cc(C(=O)OC(C)C(=O)NCc3ccc4c(c3)OCO4)ccc2C)c1 (centres undefined),4%
O=C1C(Cl)=C(Nc2ccccc2O)C(=O)N1c1ccccc1,?
Cc1ccccc1C(=O)NC(C)c1ccc2c(c1)CCCC2 (centres undefined),-8%
CCOC(=O)N1CCC(NC(=O)c2ccc3c(c2)N=C(C)c2c(C)ccc(C)c2S3)CC1,17%
Cc1ccc(S(=O)(=O)NNC(=O)c2cc(C)c(C)cc2N)cc1,-14%
O=C(O)c1ccc(Cl)c(N2C(=O)Nc3ccccc3N2O)c1,-15%
CCOc1ccc2c(=O)c(Oc3ccccc3)c(C)oc2c1,19%
Cc1ccc(CNC(=O)CNS(=O)(=O)c2ccc3c(c2)C(C)(C)C(=O)N3C)cc1,-12%
CCOc1ccc(C(C(=O)NCCOC)N(CCOC)C(=O)CCC(=O)Nc2ccccn2)cc1 (centres undefined),-19%
O=C(Nc1cccc(C(F)(F)F)c1)C1CCN(S(=O)(=O)c2cccs2)CC1,-5%
COc1ccc(NC(=O)CSc2nc3ccccc3c(=O)n2CCCO)cn1,?
CCOc1ccc2nc(CN3CCN(Cc4ccsc4)C(CCO)C3)ccc2c1 (centres undefined),11%
O=C(Nc1ccc(O)cc1)c1c(O)c2c([nH]c1=O)CCCC2,7%
COc1ccc(C2=Nn3c(nnc3-c3ccccc3OC)SC2)cc1OC1CCCC1,?
Cc1c(Cl)cccc1NC(=O)Cn1c(=O)n(Cc2nc(-c3ccccc3)no2)c(=O)c2cc3c(cc21)OCO3,19%
Nc1cc(OC(=O)c2cccs2)nn1S(=O)(=O)c1ccc(F)cc1,-20%
CSc1nnc2ccc(-c3ccccn3)nn12,-1%
Cc1nc2cc(-c3cccs3)nn2c(NCC(C)(C)CN(C)C)c1C,18%
CN(C)CCCOC1C(C(O)CO)OC2OC(C)(C)O[C@@H]21 (some centres undefined),7%
O=C(Nc1nc2c(F)cc(F)cc2s1)c1ccc2c(c1)OCCO2,8%
COc1ccc(Cl)cc1N1C(=O)C2CCCN2C1c1ccc(F)cc1 (centres undefined),-1%
CCN=C1S/C(=C\c2cn(CC(=O)NCCOC)c3ccccc23)C(=O)N1CC,-26%
O=C(CN1CCOCC1)Nc1cc(C(F)(F)F)ccc1Cl,?

# Remaining list, next part
SMILES,VDR inh
O=[N+]([O-])c1ccc(O)c(N=Cc2sc3ccccc3c2O)c1,3%
CCCC(c1nnnn1Cc1cccs1)N1CCN(C2CCCC2)CC1 (centres undefined),-27%
CCC1CCCCN1S(=O)(=O)c1ccc2[nH]c(=O)ccc2c1 (centres undefined),-8%
CC(=O)N1CCc2cc(S(=O)(=O)NCC(=O)NCc3ccc(Cl)cc3)ccc21,4%
CC(=O)CC(=O)Nc1ccn(-c2ccccc2)n1,3%
Cc1ccc(CCNC(=O)c2nnn(-c3cccc(C)c3)c2N)cc1,-16%
COc1ccc(-c2csc(NCCc3nc4cc(Cl)c(N5CCCCC5)cc4n3CCOCCO)n2)cc1,-7%
COc1ccc(-n2c(=O)c(C)nc3cnc(N(C)C)nc32)cc1,-3%
COC(=O)c1cc(C#N)c(OC)nc1C,13%
CCOC(=O)C1CCN(CCC(=O)Nc2cccc(C)c2)CC1,-5%
COc1ccc(/C=C/C(=O)NC2CCCCCC2)cc1S(=O)(=O)N1CCOCC1,8%
Cc1ccc(NC(=O)CN2C(=O)CC(c3ccc(F)cc3)=Nc3ccccc32)cc1F,-5%
CCOc1ccc(NC(=O)CN(C)C(=O)Cc2n[nH]c(=O)c3ccccc23)cc1OCC,-2%
COc1ccc(Cn2c(=S)[nH]c3ccsc3c2=O)cc1,-10%
COc1ccc(-n2nc(C(=O)N3CCCCC3)c(C)c(C#N)c2=O)cc1,10%
NC(=S)N/N=C/c1ccc(-n2nncc2-c2ccc(Cl)cc2)cc1,0%
CC(C)c1cc(-c2nc(-c3cccc(Cl)c3)no2)n[nH]1,9%
O=C1CC(c2ccco2)CC(O)=C1C=NCCN1CCNCC1 (centres undefined),11%
Cc1cc(C(=O)NCc2ccc(F)cc2)c2ccccc2n1,-4%
COc1cccc(C(=O)CN(C(=O)c2ccc(Cl)c(Cl)c2)N2C(=O)c3ccccc3C2=O)c1,-10%
CC(C)C(c1nnnn1Cc1ccccc1)N1CCc2ccccc2C1 (centres undefined),9%
C(=N\Nc1nc(Nc2ccccc2)nc(Nc2ccccc2)n1)/c1ccncc1,20%
COCCCNC(=S)N1CCC(NC(=O)Nc2ccc(C)cc2)CC1,-17%
CCS(=O)(=O)c1ccc2oc(SCC(=O)Nc3ccc(OC)cc3OC)nc2c1,-9%
O=C(Cc1ccccc1)NCC(=O)N/N=C/c1ccc([N+](=O)[O-])s1,-7%

# Other entries:
SMILES,VDR inh
CC(C)(C)OC(=O)NCCCCC1=CC2=CC(=O)C(C)(OC(=O)CCc3ccccc3)C(=O)C2=CO1 (centres undefined),4%
CC1CCCCN1CCNC(=O)c1ccc2c(c1)N(Cc1ccccc1F)C(=O)c1ccccc1S2=O (centres undefined),-8%
CC(=O)Nc1cc(-c2nn(CC(=O)N3CCCCC3)c(=O)c3ccccc23)ccc1N1CCOCC1,16%
CC(=O)Nc1ccc(NC(=O)C(C)OC(=O)CCN=C2NS(=O)(=O)c3ccccc32)cc1 (centres undefined),12%
COc1ccccc1N1CCN(S(=O)(=O)c2c(C)sc3ncn(CC(=O)Nc4cccc(Cl)c4)c(=O)c23)CC1,0%
O=C(CN1CCCCC1)N1c2ccccc2Sc2ccc(C(F)(F)F)cc21,-4%
COc1ccccc1/C=C/c1nc(C#N)c(N2CCN(c3ccccc3)CC2)o1,9%
O=C(CCNC(=O)Cn1ccc2ccccc2c1=O)NCCCN1CCN(c2ccccc2F)CC1,-2%
CCC(C)NC(=O)c1ccc2c(c1)N(Cc1ccccc1)C(=O)CS2 (centres undefined),-21%
Cc1ccc2cc(N)ccc2n1,13%
COc1ccc(-c2sc3cc(OC)c(OC)cc3c2C#CC2(O)CCCCC2)cc1,4%
CCOc1ccc(NC(=O)C2CCCN(C(=O)NCc3ccccc3)C2)cc1 (centres undefined),3%
Cc1ccc([C@H]2C(C#N)=C(N)Oc3cc(C)oc(=O)c32)o1,?
O=C(Nc1ccccc1C(=O)NCCCn1ccnc1)c1ccc(Cl)cc1Cl,13%
O=C(N/N=C/c1c[nH]c2ccccc12)C1CC1c1ccccc1 (centres undefined),8%
O=C(CCCC(=O)OCC1CCCO1)OCC1CCCO1 (centres undefined),30%[activator]
COc1ccc(N2CCN(C(=O)CN3C(=O)NC4(CCCCCC4)C3=O)CC2)cc1,7%
Cc1cccc(CSc2cn(CC(=O)N3CCOCC3)c3ccccc23)c1,-2%&-6%
O=C(C1CCC1)N1CCc2cc(S(=O)(=O)Nc3ccc4c(c3)OCO4)ccc21,-7%
C=CCNC(=O)c1ccccc1NC(=O)c1ccc(Cl)c(S(=O)(=O)Nc2ccccc2)c1,-5%
Cc1ccnc2nc(C(=O)N3CCN(S(=O)(=O)c4ccccc4)CC3)nn12,-19%
CCOc1ccc2[nH]cc(-c3csc(N)n3)c2c1,26%
O=[N+]([O-])c1cccc(SSc2cccc([N+](=O)[O-])c2)c1,4µM*
COc1ccc(OC)c(CCNC(=O)CS(=O)(=O)Cc2nc(-c3cccc(Cl)c3)oc2C)c1,-5%
COc1ccccc1CNC(=O)C(NC(=O)c1ccccc1)C(C)C (centres undefined),-10%

# The list goes on:
SMILES,VDR inh
O=C(Cn1cc(S(=O)(=O)Cc2ccccc2F)c2ccccc21)NCc1ccccc1,7%
Cc1c(C(=O)OCC(=O)NCc2ccccc2)oc2ccccc12,-4%
CC1CCC2C(=O)N(c3ccc(Cc4ccncc4)cc3)C(=O)C2C1 (centres undefined),-1%
CC1CCN(c2ccc(C(=O)Nc3ccc4c(c3)OCO4)cc2[N+](=O)[O-])CC1,-3%
Cc1ccc(NC(=O)c2ccc(=O)[nH]n2)cc1S(=O)(=O)Nc1ccccc1Cl,-12%
COc1ccc(N(C)S(=O)(=O)c2cccc(C(=O)NCc3ccc(C)cc3)c2)cc1,-4%
O=C(O)C1Cc2[nH]cnc2C(c2cccc([N+](=O)[O-])c2)N1 (centres undefined),-3%
COc1ccc(-n2cnnc2SCC(=O)NC2CCCc3ccccc32)cc1 (centres undefined),-9%
CCCCN(C)C(=O)C1CCN(Cc2ccc(OCc3ccccc3)cc2)CC1,-13%
COc1ccc(NC(=O)C(C)n2nnc3sc(-c4ccccc4)cc3c2=O)cc1Cl (centres undefined),?
Cc1cnc(NC(=O)c2sc3ccccc3c2Cl)s1,-5%
O=C(Nc1cccc(-c2ccc(N3CCCCC3)nn2)c1)c1ccc(Br)o1,-20%
CCc1cccc(CC)c1NC(=O)COC(=O)Cc1ccsc1,-25%
COc1ccccc1CNC(=O)c1ccc(N(C)S(=O)(=O)c2ccc(C)cc2)cc1,4%
CCOC(=O)C1=NN(c2ccccc2)C(=O)/C1=C\c1ccc(N(C)C)cc1,?
c1ccc(Cn2nnnc2CN2CCN(Cc3ccc4c(c3)OCO4)CC2)cc1,6%
COc1ccc(Nc2cc(C)nc3nc(C)nn23)cc1Cl,-12%
Cn1c(CC(=O)Nc2ccccc2F)nnc1SCC(=O)NC1CCCCC1,-14%
c1ccc(SCc2nc(-c3cccnc3)no2)cc1,7%
COc1ccc(Nc2nc(-c3cccs3)nc3ccccc23)c(OC)c1,-1%
CCOC(=O)C(CC)n1cnc2c(nnn2-c2ccccc2)c1=O (centres undefined),0%
O=C(C1COc2ccccc2O1)N1CCN(c2ccc([N+](=O)[O-])cc2)CC1 (centres undefined),-14%
CCC(CC)c1nnc(NC(=O)COc2ccc3c(C)cc(=O)oc3c2)s1,9%
C=COCCNC(=O)C1CC(=O)N(c2ccc(C)cc2)C1 (centres undefined),5%
CCOc1ccc(NC(=O)Cn2cc(C(=O)c3ccc(C)c(C)c3)c(=O)c3cc(OC)c(OC)cc32)cc1,2%

# As a working copy, four of the compounds above.
SMILES,VDR inh
O=C(C1COc2ccccc2O1)N1CCN(c2ccc([N+](=O)[O-])cc2)CC1 (centres undefined),-14%
CCC(CC)c1nnc(NC(=O)COc2ccc3c(C)cc(=O)oc3c2)s1,9%
C=COCCNC(=O)C1CC(=O)N(c2ccc(C)cc2)C1 (centres undefined),5%
CCOc1ccc(NC(=O)Cn2cc(C(=O)c3ccc(C)c(C)c3)c(=O)c3cc(OC)c(OC)cc32)cc1,2%

# Structural class: the entries above containing an aryl thioether with sulfur outside any ring
SMILES,VDR inh
CCNc1nc(NCC)nc(SCCOC(=O)Nc2ccc(Cl)cc2Cl)n1,0%
COc1ccc(NC(=O)CSc2nc3ccccc3c(=O)n2CCCO)cn1,?
CSc1nnc2ccc(-c3ccccn3)nn12,-1%
CCS(=O)(=O)c1ccc2oc(SCC(=O)Nc3ccc(OC)cc3OC)nc2c1,-9%
Cc1cccc(CSc2cn(CC(=O)N3CCOCC3)c3ccccc23)c1,-2%&-6%
COc1ccc(-n2cnnc2SCC(=O)NC2CCCc3ccccc32)cc1 (centres undefined),-9%
Cn1c(CC(=O)Nc2ccccc2F)nnc1SCC(=O)NC1CCCCC1,-14%
c1ccc(SCc2nc(-c3cccnc3)no2)cc1,7%

# Source: PubChem
